HTT prom inh: inhibitors of huntingtin promoter activity; HEK293 HTT promoter firefly luciferase reporter (activity 0% = vehicle and -100% = no light), 24 h; Potency, µM (series often up to 57.5 µM), inactives show at the top dose activity change, negative = inhibition, most hits filed as inhibitors; 48,000 tested, 0.93% active; active = well fitted inhibition curve with a large enough effect; inconclusive = small, poorly fitted or top-dose-only effect; inactive = no such curve, though single readings can be large or run the other way; note: nearly all actives have a fitted effect of over 50% in size
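Luminescence was read after Dual-Glo reagent and a 10 min room-temperature incubation. Values were normalized to vehicle (0% activity) and zero RLU (-100% activity). Reporter HEK293 cells had been exposed to compounds (up to 57.5 uM final) for 24 h.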
PMP22 txn: modulates PMP22 transcription in S16 Schwann cells; S16 Pmp22-F2sN Schwann cells (luciferase reporters placed in the Pmp22 gene), FLuc/NLuc coincidence luminescence, 24 h; Potency, µM (series often up to 57.5 µM), without a hit: at the highest dose activity change, negative = inhibition, actives largely listed as inhibitors; 43,000 tested, 2% active; AID 1508649; active = clear falling dose curves in both reporters; inconclusive = both reporters move, but less clearly or upward; inactive = either reporter flat; the % is the NLuc reporter signal; note: % is set by controls: 0 for no effect and ±100 for the full control effect; some results filed as inactive show a strong effect at the top dose
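S16(c9) Schwann cells with FLuc/NLuc coincidence reporter in the Pmp22 3' UTR; compounds pin-transferred, 24 h at 37C. Dual-luciferase read: FLuc first, then NLuc after Stop&Glo, each 10 min at room temperature.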
* hit, by the source's call; ? = inconclusive; / = no result given; & = joins results of further samples; [ ] = remark or other dose. Potency is the fitted concentration of half-maximal effect. A portion of the library; rates above refer to the full screens.

Start of the data: the first four entries as a preview:
Below each compound – PMP22 txn | HTT prom inh
[1] Cc1ccc(NC(=O)c2ccc(Br)cc2)c(C(=O)c2ccccc2)c1
  6% | -10%
[2] Cc1cccc(OCC(=O)Nc2c(C(=O)Nc3ccc(F)cc3)oc3ccccc23)c1
  -12% | 7%
[3] Cc1ccc(NC(=O)Cn2c(=O)n(Cc3nc(-c4ccccc4)no3)c(=O)c3cc4c(cc32)OCO4)cc1C
  -24% | 6%
[4] CC(C)c1ccc(NC(=O)CSC2=Nc3ccccc3C3=NC(CCC(=O)NCc4ccc(F)cc4)C(=O)N23)cc1 (configuration not stated)
  ? | ?

Main list (from the top)
Below each compound – PMP22 txn | HTT prom inh
[1] Cc1ccc(NC(=O)c2ccc(Br)cc2)c(C(=O)c2ccccc2)c1
  6% | -10%
[2] Cc1cccc(OCC(=O)Nc2c(C(=O)Nc3ccc(F)cc3)oc3ccccc23)c1
  -12% | 7%
[3] Cc1ccc(NC(=O)Cn2c(=O)n(Cc3nc(-c4ccccc4)no3)c(=O)c3cc4c(cc32)OCO4)cc1C
  -24% | 6%
[4] CC(C)c1ccc(NC(=O)CSC2=Nc3ccccc3C3=NC(CCC(=O)NCc4ccc(F)cc4)C(=O)N23)cc1 (configuration not stated)
  ? | ?
[5] COc1ccc(CCNC(=O)c2ccc3nc(Cc4ccccc4)oc3c2)cc1OC
  ? | ?
[6] COc1ccccc1C(=O)Nc1cc(-c2cccc(Br)c2)nn1-c1ccccc1
  ? | -20%
[7] CCn1cc(S(=O)(=O)c2ccccc2)c(=O)c2cc(C)ccc21
  18% | -23%
[8] Cc1cccc(NC(=O)CSc2nc3c([nH]c4ccccc43)c(=O)n2-c2cc(C)cc(C)c2)c1
  ? | -4%
[9] CCn1cc(C(=O)N2CCN(c3cccc(Cl)c3)CC2)c(=O)c2cc(S(=O)(=O)N3CCCCC3)ccc21
  -9% | -27%[11.5 µM]
[10] COc1ccc(CSc2nc3ccncc3n2CC(=O)Nc2cc(C)cc(C)c2)cc1
  -9% | 7%
[11] COc1ccc(C(=O)Nc2ccc(N3CCN(c4ccccc4)CC3)c(C(=O)O)c2)cc1
  17% | -16%
[12] COC(=O)c1cc(S(=O)(=O)N2CCN(c3ccc(OC)cc3)CC2)c[nH]1
  10% | -24%
[13] O=C(OCc1cc(=O)n2nc(-c3cccs3)sc2n1)c1cccc(F)c1
  6% | 2%
[14] Cc1ccc(CSc2nc3ccc(NC(=O)C(C)C)cc3s2)cc1
  -7% | -15%
[15] O=C(CCSCc1cccc(F)c1)NCc1ccccc1
  0% | -5%
[16] CCOC(=O)c1cc(-c2ccccc2)n(CCC(=O)Nc2cc(OCC)ccc2OCC)c1C
  -2% | ?
[17] Cc1ccc(-n2nc3c(=O)n(CCCC(=O)NCc4ccc(F)cc4)nc(C)c3c2C)cc1
  -16% | -23%
[18] O=c1oc2c(CN3CCN(CCO)CC3)c(O)ccc2cc1-c1ccccc1
  -13% | -18%
[19] Cc1cccc(N2CCN(C(=O)Cn3c(=O)c4cccn4c4ccc(F)cc43)CC2C)c1 (configuration not stated)
  ? | -17%
[20] COc1cc(NC(=O)NCCn2nnc3cc(S(=O)(=O)N(C)C)ccc32)cc(OC)c1OC
  19% | -8%
[21] CCOC(=O)N1CCC(NC(=O)c2ccc3c(c2)N(Cc2cc(C)ccc2C)C(=O)c2ccccc2S3(=O)=O)CC1
  -4% | -29%
[22] CN(C)CCNC(=O)c1ccc(-n2c(-c3ccccc3)cc3c2CCCCC3)cc1
  ? | 12%
[23] COc1ccc(CCNC(=O)CSc2nnnn2-c2cccc(C(C)=O)c2)cc1OC
  -17% | -2%
[24] Cn1c2cc(S(C)=O)sc2c2cnn(Cc3cccc(N)c3)c(=O)c21 (configuration not stated)
  / | 1%
[25] O=C(NCCOCCn1c(=O)oc2ccccc21)Nc1ccc(Cl)cc1
  -21% | ?
[26] CC(C)c1ccc(S(=O)(=O)c2cn(CC(=O)Nc3ccc(F)cc3)c3ccccc3c2=O)cc1
  ? | -20%
[27] Cc1ccc(Cl)cc1N1CCN(S(=O)(=O)c2ccc3oc(=O)c4ncn(C)c4c3c2)CC1
  33% | -8%
[28] CCOC(=O)c1cnc2c(C)cccc2c1Nc1ccc(OC(C)C)cc1
  ? | -19%
[29] COC(=O)c1cc2sc(Cl)cc2n1Cc1nc(-c2ccccc2F)oc1C
  -1% | -3%
[30] Cc1ccc(C)c(NC(=O)CSc2ccc3nc(-c4ccccc4)cn3n2)c1
  -33% | 8%

Whole records, looked up by structure. Screens in order: PMP22 txn	HTT prom inh
Record of CCOC(=O)c1cc(-c2ccccc2)n(CCC(=O)Nc2cc(OCC)ccc2OCC)c1C : -2%	?
Record of CN(C)CCNC(=O)c1ccc(-n2c(-c3ccccc3)cc3c2CCCCC3)cc1 : ?	12%
Record of Cc1cccc(NC(=O)CSc2nc3c([nH]c4ccccc43)c(=O)n2-c2cc(C)cc(C)c2)c1 : ?	-4%
Record of Cc1ccc(C)c(NC(=O)CSc2ccc3nc(-c4ccccc4)cn3n2)c1 : -33%	8%

Next section:
Below each compound – PMP22 txn | HTT prom inh
[31] COc1ccc(Cn2ccc3nc(C)c(C(=O)Nc4ccc(OC(F)(F)F)cc4)cc3c2=O)cc1
  -20% | ?
[32] O=C(CN(CCc1ccccc1)S(=O)(=O)c1ccccc1)NCc1ccc(Cl)cc1
  ? | ?
[33] Cc1c(C(=O)NCc2ccccc2)sc2nc[nH]c(=O)c12
  -38% | 13%
[34] CC(=O)c1ccc(S(=O)(=O)Nc2ccc(-c3cn4c(C)csc4n3)cc2)cc1
  4% | -3%
[35] Cc1cccc(CC(=O)NCc2nc3cccnc3n2Cc2ccc(F)cc2)c1
  -6% | -7%
[36] CCN(CC)c1sc(S(=O)(=O)c2ccccc2)nc1S(=O)(=O)c1ccc(C)cc1
  ? | -38%
[37] COc1ccc(NC(=O)c2cc(S(=O)(=O)N3CCCC(C)C3)cn2C)c(OC)c1 (configuration not stated)
  0% | -10%
[38] Nc1ncnc2c1ncn2[C@@H]1O[C@H](CO)[C@@H](O)[C@H]1O
  / | -8%
[39] CCCN1C(=O)C(O)(CC(=O)c2ccc(OC)c(OC)c2)c2ccccc21 (configuration not stated)
  -22% | ?
[40] O=C(CSc1ncc2c(n1)-c1ccccc1N(Cc1ccc(F)cc1)S2(=O)=O)NCc1ccccc1
  13% | -16%
[41] COc1ccc(CNc2cc(-c3ccc(OC)cc3)nc3nncn23)cc1
  ? | ?
[42] CCOc1ccc(S(=O)(=O)c2cn(Cc3ccccc3)c3ccc(OCC)cc3c2=O)cc1
  -4% | -19%
[43] CC(C(=O)O)c1ccc2c(c1)[nH]c1ccc(Cl)cc12 (configuration not stated)
  / | 0%
[44] NS(=O)(=O)c1ccc(CCNc2ncnc3c2cnn3-c2cccc(Cl)c2)cc1
  ? | -32%
[45] Cc1ccc2nc(-c3cccc(NC(=O)c4cccc5ccccc45)c3)oc2c1
  -27% | 27%
[46] CCOc1cccc(C(=O)Nc2cc(-c3ccc(C)cc3)no2)c1
  3% | 15%
[47] CNC(=O)Nc1ccc(-c2nc(N3CC4CCC(C3)O4)c3cnn(C4CCC5(CC4)OCCO5)c3n2)cc1
  / | -34%
[48] COc1ccc(C(=O)Oc2cc(-c3ccc4c(c3)OCO4)cc(=O)c3c(C)oc(C)c23)cc1
  -23% | -1%
[49] COc1ccc(-c2nc3n(n2)C(c2ccc(OC)c(OC)c2)C(C(=O)Nc2cccnc2)=C(C)N3)cc1 (configuration not stated)
  -8% | ?
[50] O=C(Cn1c(SCC(=O)Nc2ccc(F)cc2)nc2ccccc21)NCc1ccccc1Cl
  ? | -32%
[51] CCC(=O)N1CCc2cc(Br)cc(S(=O)(=O)N3CCC(C(=O)Nc4ccc(OC)cc4)CC3)c21
  -16% | -20%
[52] CC(C)c1ccc(NC(=O)c2cnn3c(C(F)F)cc(-c4ccccc4)nc23)cc1
  ? | -2%
[53] CC(=O)N1CCCC1c1nc2ccccc2n1Cc1ccc(F)cc1 (configuration not stated)
  22% | -15%
[54] Cn1nc(-c2ccccc2F)c2cc(C(=O)NCc3ccccc3Cl)sc21
  ? | ?
[55] O=C(CCn1ccc2cc(S(=O)(=O)N3CCCC3)ccc21)NCc1ccccc1F
  8% | -21%
[56] CCOc1ccc(CCNC(=O)c2cc(=O)[nH]c3ccc(S(=O)(=O)N4CCCCC4)cc23)cc1OCC
  4% | -9%
[57] CCN(CC)c1nn2c(=O)c(C(=O)NCc3ccc(OC)cc3OC)cnc2s1
  -26% | -1%
[58] Cc1ccc(-n2ncc3c(=O)n(Cc4ccccc4C)cnc32)cc1C
  -6% | -10%
[59] O=C(NCCc1ccc(Cl)cc1)C1CCN(c2ncnc3c2nc2n3CCCCC2)CC1
  -24% | -7%
[60] COc1ccccc1N1CCN(c2ncc3c(n2)CCN(Cc2ccccc2F)C3)CC1
  0% | -11%

Rewritten with bars between the fields: entries from further up.
item | smiles | PMP22 txn | HTT prom inh
49 | COc1ccc(-c2nc3n(n2)C(c2ccc(OC)c(OC)c2)C(C(=O)Nc2cccnc2)=C(C)N3)cc1 (configuration not stated) | -8% | ?
58 | Cc1ccc(-n2ncc3c(=O)n(Cc4ccccc4C)cnc32)cc1C | -6% | -10%

Single entries from above:
entry 56 | PMP22 txn: 4%
entry 42 | HTT prom inh: -19%

(more compounds)
Below each compound – PMP22 txn | HTT prom inh
[61] Cc1ccc(C)c(NC(=O)CSc2ncc(S(=O)(=O)c3ccc(C)c(Cl)c3)c(=O)[nH]2)c1
  -56% | -18%
[62] COc1ccccc1CNC(=O)CCn1cnc2ccccc2c1=O
  ? | -6%
[63] O=C(Cn1c(=O)n(-c2ccccc2)c(=O)c2c3c(sc21)CCCC3)Nc1ccc(F)cc1
  -26% | -5%
[64] Cc1cc(NC(=O)Cn2nc(C)n3cccc3c2=O)ccc1Br
  -8% | -7%
[65] Cc1ccc(NC(=O)c2c(NC(=O)C(F)(F)F)sc3c2CCCCC3)cc1
  10µM* | 1.4µM*
[66] c1cc(N[C@@H]2CCNC2)nc(-c2cnc3ccc(-c4cn[nH]c4)cn23)c1
  / | ?
[67] Cc1ccc(S(=O)(=O)c2nc(-c3ccco3)oc2SC(C)c2ccccc2)cc1 (configuration not stated)
  ? | ?
[68] Cc1ccc(CN(Cc2ccco2)C(=O)c2oc3c(C)c(C)ccc3c2C)cc1
  ? | -27%
[69] CCOC(=O)c1ccc(NC(=O)Cn2nc(SC)c(S(=O)(=O)c3ccc(Cl)cc3)c2N)cc1
  ? | ?
[70] Cc1ccc(-n2ncc(C(=O)NCCN3CCC(Cc4ccccc4)CC3)c2C2CCN(C(=O)OC(C)(C)C)CC2)cc1
  ? | ?
[71] CCOc1ccccc1NC(=O)c1ccc2c(c1)CCCN2S(C)(=O)=O
  ? | 1%
[72] O=C(Nc1nnc(S(=O)(=O)N2CCCCCC2)s1)c1ccccc1Br
  4% | -12%
[73] O=c1c2cnn(-c3ccc(F)cc3)c2ncn1Cc1cccc(Cl)c1
  -25% | -4%
[74] CNC(=O)c1c(I)c(NC(=O)CCCCC(=O)Nc2c(I)c(C(=O)O)c(I)c(C(=O)NC)c2I)c(I)c(C(=O)O)c1I
  / | -21%
[75] CCOc1ccc(NC(=O)Cn2c(=O)n(-c3ccccc3)c(=O)c3c4c(sc32)CCCC4)cc1
  -14% | -1%
[76] CCC(CC)c1nn2c(=O)cc(COc3ccc(NC(=O)c4cccc(C)c4)cc3)nc2s1
  22% | -7%
[77] Cc1c(C(=O)OCc2ccccc2)[nH]c2c1C(=O)CC(c1ccc(Cl)cc1)C2 (configuration not stated)
  ? | -19%
[78] Cc1ccc(S(=O)(=O)N2CCCc3cc(NS(=O)(=O)c4ccc(C)c(C)c4)ccc32)cc1
  ? | ?
[79] CCN1CCCC1CNC(=O)c1cc(S(=O)(=O)CC)c(N)cc1OC (configuration not stated)
  / | 9%&-1%
[80] CCOC(=O)c1sc2ncn(CC(=O)Nc3ccc(OCC)cc3)c(=O)c2c1C
  -1% | -5%
[81] Cc1ccc(S(=O)(=O)N(CCc2ccccc2)CC(=O)Nc2ccc(Br)cc2)cc1
  -7% | ?
[82] Cc1cn2c(=O)cc(COc3ccccc3NC(=O)c3ccc(C(C)(C)C)cc3)nc2s1
  ? | 3%
[83] CCCCNC(=O)CSc1nc2cc3c(cc2c(=O)n1CCCC(=O)NCCc1ccc(OC)c(OC)c1)OCO3
  -2% | -15%
[84] O=C(Nc1ncc(Cc2ccc(Cl)cc2)s1)c1ccc2c(c1)CC(c1ccccc1)OC2=O (configuration not stated)
  ? | -9%
[85] COc1ccccc1CNC(=O)c1ccc(N2CCCC2)c(NC(=O)NCc2ccc(F)cc2)c1
  ? | -27%
[86] COc1ccc(CNC(=O)c2ccc(NC(=O)N3CCCCc4ccccc43)cc2)c(OC)c1
  ? | -8%
[87] CSc1ccc(CCNS(=O)(=O)c2ccc3c(c2)C(C)(C)C(=O)N3C)cc1
  -4% | -32%
[88] C[C@@H](CN(C)C)CN1c2ccccc2Sc2ccccc21
  / | -14%
[89] Cc1cccc(C)c1OCc1nc2c3cnn(-c4cccc(F)c4)c3ncn2n1
  ? | -2%
[90] COc1ccccc1Nc1c2c(nc3ccc(NC(=O)c4cccc(OC)c4OC)cc13)CCCC2
  ? | ?
[91] CNC(=O)C1CCC(Cn2c(=O)[nH]c3ccsc3c2=O)CC1 (configuration not stated)
  -6% | 1%
[92] O=[N+]([O-])c1cc(-c2nc(-c3ccncc3)no2)ccc1NCc1ccccc1
  -15% | -2%
